Bioassay records deposited in PubChem by several laboratories.
Calb FLC: C. albicans growth modulation with fluconazole | C. albicans CaCi-2 (fluconazole-resistant clinical isolate) + fluconazole, Alamar Blue growth, 48 h | growth inhibition, % (no concentration beside the values) | 300,000 tested, 0.57% active | AID 1979;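 active means most replicates above 75%; inconclusive means exactly half above 75%; inactive means most below 75%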;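 further: all wells also contain fluconazole at 8 µg/ml as a sub-toxic cotreatment; 0% = median of DMSO wells and 100% = median of geldanamycin control wells; wells of about 8 µL received 7.5 nL stock; the first replicate is given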
Beta cell apopt: blocks beta cell apoptosis | protection from apoptosis, % (no concentration beside the values) | AID 435005 | INS-1E cytokine-induced death, ATP luminescence, 48 h; percent of positive-control rescue, neutral wells zero | 300,000 tested, 0.8% active;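 active means all replicates at 75% or more, or half of them and the mean; inconclusive means half reach 75% but not the mean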;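 further: 0% = cytokine-treated negative control wells and 100% = positive control rescue; higher means more ATP so stronger rescue from cytokine killing; wells of about 40 µL received 100 nL stock; the first replicate is given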
A1 inh: inhibitors of the anti-apoptotic protein A1, read as caspase activation; MEF A1-2A-BIM cells, Caspase-Glo 3/7 luminescence, 3 h; percent of clofoctol response, vehicle zero; caspase activation, % (test concentration not listed); 330,000 tested, 0.066% active;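 active means over half of replicate activation scores above 10%, or exactly half above 10 with the replicate mean above 10; inconclusive means replicate mean below 10 yet half the replicates above 10; inactive means over half of replicates below 10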;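 further: wells of about 30 µL received 50 nL stock; many hits fall short of the cut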
LANA-H2B inh: blocks KSHV LANA binding to histone H2A/H2B | Q9QR71 | cell-free LANA-H2A/H2B peptide, fluorescence polarization | inhibition, % (no concentration beside the values) | 320,000 tested, 0.6% active; in the data active means inhibition mostly above about 10%, no sharp cut-off; inactive means mostly below about 6.7%;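 further: stock transfer was 7.5 nL into about 10 µL; 0% = median of vehicle wells and 100% = median of positive control wells; one replicate is shown; the record names a cut of 25% in any replicate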
ALR H2O2 inh: blocks human ALR sulfhydryl oxidase activity. purified ALR, DTT oxidation, H2O2 HRP-luminol luminescence. P55789. AID 485317. 290,000 tested, 3.8% active. inhibition, % (concentration not given with the values);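 active means mean and each replicate at 75% or more; inconclusive means only one of the two met; inactive means neither met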;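 further: stock transfer was 7.5 nL into about 7.5 µL; 0% = neutral wells and 100% = wells with inactivated enzyme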
Target sequence (P55789 whole entry, looked up): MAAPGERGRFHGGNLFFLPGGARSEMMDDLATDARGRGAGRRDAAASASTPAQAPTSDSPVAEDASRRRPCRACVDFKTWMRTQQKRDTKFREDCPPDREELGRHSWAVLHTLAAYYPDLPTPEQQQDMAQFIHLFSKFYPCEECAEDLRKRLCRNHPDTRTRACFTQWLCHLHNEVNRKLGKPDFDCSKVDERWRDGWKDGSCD
T cruzi inh: blocks replication of Trypanosoma cruzi. inhibition, % (no concentration beside the values). T. cruzi beta-gal in NIH3T3, luminescence, 90 h. 300,000 tested, 1.4% active;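 active means mean inhibition across valid replicates above about 55%, limit read from the data; inconclusive means mean below that limit but half or more replicates reach it; inactive means mean below it, under half of replicates reach it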;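 further: signal also drops with host cell toxicity which is not excluded here; 0% = plate median of DMSO wells and 100% = zero luminescence signal; higher percent means less beta-gal luminescence so fewer parasites; stock transfer was 50 nL into about 50 µL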
rRNA inh HTS: inhibits bacterial ribosomal RNA function over humanized ribosomes; E. coli WT GFP vs humanized-ribosome RFP mutants, fluorescence, 24 h; stronger effect = lower value; DMSO median 0, no signal -100; AID 720706; GFP signal change (wild-type ribosome), % (concentration not given with the values); 350,000 tested, 1.6% active;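 active means significant combined selectivity score with lowered wild-type GFP, culture density cut under 30%, mutant RFP and density less affected; inactive means any of these conditions unmet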; further: one replicate is shown; some compounds called inactive have numbers as strong as hits
B2AR ag: human beta-2 adrenergic receptor agonism by FAP; response, % (test concentration not listed); AID 504454; Am2.2-beta2AR cells, FAP receptor internalization, flow cytometry; reference of the scale not given here; 340,000 tested, 0.43% active; P07550;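 active means response above a set limit, near 3 SD of response in nonfluorescent compounds, cut at about 42% in these data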;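 further: stock transfer was 100 nL into about 11 µL; a reference agonist was the positive control; negative values mostly stem from fluorescent compounds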
Target sequence (P07550 whole entry, looked up): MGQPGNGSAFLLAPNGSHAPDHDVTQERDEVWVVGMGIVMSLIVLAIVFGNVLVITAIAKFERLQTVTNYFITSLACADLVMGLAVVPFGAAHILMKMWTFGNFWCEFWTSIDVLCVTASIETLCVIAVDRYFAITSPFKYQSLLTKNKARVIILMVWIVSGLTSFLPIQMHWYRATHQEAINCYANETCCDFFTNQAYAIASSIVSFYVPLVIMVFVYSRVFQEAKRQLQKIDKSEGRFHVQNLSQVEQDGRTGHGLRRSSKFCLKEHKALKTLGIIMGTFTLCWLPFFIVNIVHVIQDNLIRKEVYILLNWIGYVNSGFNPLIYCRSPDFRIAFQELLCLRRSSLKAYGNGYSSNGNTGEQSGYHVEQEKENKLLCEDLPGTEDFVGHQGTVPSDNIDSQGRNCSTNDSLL
rRNA inh HTS OD600: recorded beside rRNA inh HTS, whose call it bears; OD600 change, %; measured here: OD600 growth;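 optical density of the mix in the first replicate; 0 = DMSO median and -100 = no signal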
rRNA inh HTS RFP: recorded beside rRNA inh HTS, whose call it bears; RFP signal change, %; measured here: RFP humanized mutant strains;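 first replicate; 0 = DMSO median and -100 = no signal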
Active calls of the source: *; u = inconclusive; x = no result given. The list is partial; count on the stated rates, not on these rows.

structure	Calb FLC	Beta cell apopt	A1 inh	LANA-H2B inh	ALR H2O2 inh	T cruzi inh	rRNA inh HTS	rRNA inh HTS OD600	rRNA inh HTS RFP	B2AR ag
Cc1cc([N+](=O)[O-])c2c(c1C)C1C=CCC1C(c1ccccn1)N2 (stereo unspecified)	15	-3	0.1	6.0	-147	-1	x	x	x	x
COC(=O)CCC(=O)OC1(C)C(=O)C=C2C=C(C3CC3)N(c3cccc(C#N)c3)C=C2C1=O (stereo unspecified)	2	-1	1.1	1.9	x	-10	16	11	23	1
COc1ccc(NC(=O)NCCN2CCN(c3cccc(Cl)c3)CC2)cc1	-3	-4	-0.5	-4.8	15	3	-4	-10	0.8	8
O=C(Nc1ccccn1)c1cc2ccccc2o1	1	4	-8.5	-2.3	0	5	x	x	x	2
Cc1cc(NCc2ccc(F)cc2)nc2cc(Cl)ccc12	-7	8	0.8	-3.5	2	12	-27	-64	-6.7	8
O=C(Nc1ccc(S(=O)(=O)Nc2ncccn2)cc1)c1cccc(S(=O)(=O)N2CCCC2)c1	-3	0	-0.5	-4.9	-6	-12	11	14	12	9
COc1ccc2c(c1)c(C(O)CN1CCC(Cc3ccccc3)CC1)c(C)n2C (stereo unspecified)	7	x	-2.2	2.5	-4	9	x	x	x	1
COc1cccc(CN2CC(C(=O)N3CCCCCC3)CCC2=O)c1 (stereo unspecified)	-9	x	0.4	-3.9	-12	-5	-35	-50	-2.0	10
CCCN(Cc1nnc(-c2cccs2)o1)C(=O)CN1C(=O)NC2(CCC(C)CC2)C1=O (stereo unspecified)	x	-5	0.8	-1.5	-1	x	8	1	-1.1	-3
CCOC(=O)c1cccc(NC(=O)CSc2nnc(C3CCCCC3)n2CC)c1	2	x	0.1	1.8	-5	5	x	x	x	8

Carrying on.
structure	Calb FLC	Beta cell apopt	A1 inh	LANA-H2B inh	ALR H2O2 inh	T cruzi inh	rRNA inh HTS	rRNA inh HTS OD600	rRNA inh HTS RFP	B2AR ag
O=C(Nc1ccccc1OC(F)F)c1ccccc1	-23	-5	0.6	6.9	2	-4	x	x	x	-6
COCCN(C(=O)CC(C)(C)C)c1nnc(-c2cccnc2)s1	-6	-6	0.4	1.1	1	24	x	x	x	-3
CC(C)c1onc(C(=O)N2CCOCC2)c1[N+](=O)[O-]	16	0	-0.3	-2.1	-2	-8	14	8	9.3	0
C#CCNC(=O)C1=C[C@@H](c2ccc(Br)cc2)[C@H](CCCO)[C@@H](OCC)O1	-6	-4	1.5	-0.4	x	5	-12	0	-0.6	-4
COC(=O)c1ccc(C2SCC(=O)N2Cc2ccccc2)cc1 (stereo unspecified)	1	-3	-0.3	-5.3	-1	-10	x	x	x	2
O=C(O)CSCc1ccc(Cl)cc1	-2	-3	-0.5	0.8	-2	-7	x	x	x	-4
N/C(=N\OC(=O)COc1ccccc1)c1ccccn1	-1	-2	-2.1	-1.5	-3	-12	6	3	0.2	6
CCOC(=O)NCc1ccc2c(c1)OCO2	-3	-5	0.3	-0.1	x	-11	x	x	x	-1
COc1ccc(-c2[nH]nc3oc(=O)cc(C)c23)cc1	15	4	0.5	0.4	x	-6	x	x	x	2
Cc1ccsc1/C=C(\C#N)C(=O)Nc1c(C)n(C)n(-c2ccccc2)c1=O	u	-6	1.0	1.0	1	-4	-4	14	-2.1	19

(next part)
structure	Calb FLC	Beta cell apopt	A1 inh	LANA-H2B inh	ALR H2O2 inh	T cruzi inh	rRNA inh HTS	rRNA inh HTS OD600	rRNA inh HTS RFP	B2AR ag
S=C(NCCCN1CCOCC1)N1CCN(c2nc(-c3ccc(Cl)cc3)cs2)CC1	u	85*	0.1	-2.3	-10	2	-60	-82	-20	13
COc1ccc(C(=O)N2c3ccc(F)cc3CCC2C)cc1OC (stereo unspecified)	-3	-5	0.5	2.1	-21	11	x	x	x	6
Cc1cccc(C(=O)OCC(=O)c2c(C)[nH]c3ccccc23)c1O	x	8	-0.5	0.0	4	x	1	13	6.6	-4
O=C(Oc1cccc(NC(=O)c2ccco2)c1)c1cccc(S(=O)(=O)N2CCCC2)c1	17	-8	-2.7	3.7	-1	12	x	x	x	24
O=C(NNS(=O)(=O)c1ccc(Cl)cc1)C1CCN(Cc2ccccc2)CC1	0	x	0.1	5.5	4	3	x	x	x	1
COc1ccc(O)c(CN2CCCC(C(=O)Nc3cccc(-n4cccn4)c3)C2)c1 (stereo unspecified)	-13	-6	-0.6	3.6	2	4	-3	0	4.2	-1
FC(F)(F)c1nnc(-c2ccccc2)nc1Oc1ccccc1	-6	6	-0.3	-5.3	8	-12	x	x	x	-5
Clc1ccc(CNc2cnccn2)cc1	-8	-5	-1.1	0.8	-5	-13	-5	-8	-4.2	1
CCc1ccc(NC(=O)Cc2cn(C)c3ccccc23)cc1	-5	-7	0.3	-3.6	4	-2	x	x	x	-1
O=C(NCc1ccccn1)NC1CCCCC1	-2	-6	-0.3	-12	-3	-7	x	x	x	-4

(list continues)
structure	Calb FLC	Beta cell apopt	A1 inh	LANA-H2B inh	ALR H2O2 inh	T cruzi inh	rRNA inh HTS	rRNA inh HTS OD600	rRNA inh HTS RFP	B2AR ag
Cc1cc2c(c(=O)n1CCN(C)C)C(c1ccc(Cl)cc1)C(C#N)=C(N)O2 (stereo unspecified)	-5	2	-0.1	0.6	-14	-12	-1	9	-2.5	-6
CCOc1ccccc1NC(=O)CSc1c(C)n[nH]c1C	3	-4	0.1	1.8	-9	-7	x	x	x	-5
Cc1nc2c(c(C)c1C#N)C(=O)c1ccccc1-2	-24	4	-0.6	-21	-5	-7	x	x	x	3
CN1/C(=C\C(=O)c2cccs2)C(C)(C)c2ccccc21	-4	-2	1.9	0.8	x	14	x	x	x	-7
COCCNc1c(-c2ccc(OC)cc2)nc2ccc(Cl)cn12	15	4	-0.1	5.5	99*	15	7	2	3.9	2
COc1ccccc1NCCC(=O)OCC(=O)NCc1ccco1	2	0	0.2	12	99*	-7	x	x	x	-1
Cc1c(NC(=O)c2ccc(N3CCCC3)c([N+](=O)[O-])c2)cccc1-c1nc2ccccc2s1	-6	10	-0.1	6.1	x	41	5	-6	1.4	-19
Cc1ccccc1NC(=S)N(CCCN1CCC(C)CC1)Cc1ccco1	-22	2	0.1	-8.4	5	5	x	x	x	-2
CCCCn1c(SCc2ccccn2)nc2c1c(=O)n(C)c(=O)n2C	2	0	-0.9	-1.2	-7	8	x	x	x	-21
N#Cc1c(Nc2ccc(F)cc2)sc(C(=O)c2ccccc2)c1N	21	20	-0.5	0.9	32	11	-40	-67	-9.2	10

Next section.
structure	Calb FLC	Beta cell apopt	A1 inh	LANA-H2B inh	ALR H2O2 inh	T cruzi inh	rRNA inh HTS	rRNA inh HTS OD600	rRNA inh HTS RFP	B2AR ag
CC1CCc2nc(NC(=O)CN3CCOCC3)sc2C1 (stereo unspecified)	-18	-3	0.0	2.3	-1	-6	x	x	x	0
CCOCCCNC(=O)c1ccc(N2CCCC2)c(NS(=O)(=O)c2ccc(C)cc2)c1	-9	2	0.9	-1.6	9	-17	-2	-11	4.4	0
Cc1cc(=O)oc2cc(OCC(=O)Nc3cccc(S(=O)(=O)N(C)C)c3)ccc12	33	-4	-0.1	-6.2	1	8	8	17	0.6	8
CCC(CC)c1nnc(NC(=O)c2ccco2)s1	4	0	-0.4	-2.8	7	0	-3	-8	-4.9	7
CCOC(=O)c1ccc(NC(=O)Nc2ccccn2)cc1	20	-4	-4.8	5.9	5	-6	-9	2	-0.9	9
COc1cccc(CCNC(=O)c2ccc(C#N)cc2)c1	-15	5	-0.4	4.8	6	4	10	11	1.3	4
Cc1ccc2nc(N(CCN(C)C)C(=O)/C=C/c3cccs3)sc2c1	-17	10	-1.4	x	x	41	-12	0	0.0	1

Part of the list above in order of length of the SMILES, smallest number first:
structure	Calb FLC	Beta cell apopt	A1 inh	LANA-H2B inh	ALR H2O2 inh	T cruzi inh	rRNA inh HTS	rRNA inh HTS OD600	rRNA inh HTS RFP	B2AR ag
O=C(O)CSCc1ccc(Cl)cc1	-2	-3	-0.5	0.8	-2	-7	x	x	x	-4
O=C(NCc1ccccn1)NC1CCCCC1	-2	-6	-0.3	-12	-3	-7	x	x	x	-4
CCOC(=O)NCc1ccc2c(c1)OCO2	-3	-5	0.3	-0.1	x	-11	x	x	x	-1
O=C(Nc1ccccc1OC(F)F)c1ccccc1	-23	-5	0.6	6.9	2	-4	x	x	x	-6
Cc1nc2c(c(C)c1C#N)C(=O)c1ccccc1-2	-24	4	-0.6	-21	-5	-7	x	x	x	3
Cc1cc(NCc2ccc(F)cc2)nc2cc(Cl)ccc12	-7	8	0.8	-3.5	2	12	-27	-64	-6.7	8
COCCN(C(=O)CC(C)(C)C)c1nnc(-c2cccnc2)s1	-6	-6	0.4	1.1	1	24	x	x	x	-3
N#Cc1c(Nc2ccc(F)cc2)sc(C(=O)c2ccccc2)c1N	21	20	-0.5	0.9	32	11	-40	-67	-9.2	10
CCCCn1c(SCc2ccccn2)nc2c1c(=O)n(C)c(=O)n2C	2	0	-0.9	-1.2	-7	8	x	x	x	-21
CCOC(=O)c1cccc(NC(=O)CSc2nnc(C3CCCCC3)n2CC)c1	2	x	0.1	1.8	-5	5	x	x	x	8
Cc1ccsc1/C=C(\C#N)C(=O)Nc1c(C)n(C)n(-c2ccccc2)c1=O	u	-6	1.0	1.0	1	-4	-4	14	-2.1	19
COC(=O)CCC(=O)OC1(C)C(=O)C=C2C=C(C3CC3)N(c3cccc(C#N)c3)C=C2C1=O (stereo unspecified)	2	-1	1.1	1.9	x	-10	16	11	23	1
